Compound activity: PubChem, several laboratories
Hsc70: small molecules displacing fluorescent ligand from Hsc70 – biochemical, fluorescence polarization, primary screen (AID 568); displacement, % at 20 µM; hits with a dose series show IC50 in µM; 83,000 tested, under 10 active; Hsc70 fluorescence polarization, probe displacement; higher % means a stronger effect; strong numbers were not always called active;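 active = displacement above 50% without optical interference and an IC50 on retest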;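 note: ATPase domain with a fluorescein-tagged ATP probe; 0% = vehicle and 100% = excess ADP; read after one hour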
MT1-MMP promoter: MT1-MMP gene expression reporter suppression – cell-based, luciferase reporter, luminescence (AID 618); MT1-MMP promoter luciferase reporter cells, luminescence; calls from a first round at 10 µM; hits with a dose series show EC50 in µM; hit rate 0.62% among 87,000;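 active = over half of the reporter light lost at 10 µM or EC50 under 50 µM; inactive = the rest and hits that failed the dose series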;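 note: actives suppress MT1-MMP promoter-driven transcription so potencies describe inhibitors; HT1080 fibrosarcoma cells; overnight exposure; toxic or luciferase-blocking compounds were not removed from the actives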
WNV protease inh: WNV NS2B-NS3 proteinase inhibition | hit rate 0.18% among 65,000 | P06935 | WNV NS2B-NS3 protease, fluorogenic substrate Ex360/Em465; hits give low values | z-score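 (tested at a level between 10 and 100 µM)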;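 active = z-score at -3 or under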;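 note: score is relative to mean and spread of the compound wells of a plate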
Target sequence (P06935 1371-1501 limits assumed): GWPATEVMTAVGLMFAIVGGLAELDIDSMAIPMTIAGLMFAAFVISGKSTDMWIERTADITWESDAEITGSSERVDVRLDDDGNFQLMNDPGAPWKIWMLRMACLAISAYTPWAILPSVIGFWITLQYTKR
Target sequence (P06935 1502-1679 limits assumed): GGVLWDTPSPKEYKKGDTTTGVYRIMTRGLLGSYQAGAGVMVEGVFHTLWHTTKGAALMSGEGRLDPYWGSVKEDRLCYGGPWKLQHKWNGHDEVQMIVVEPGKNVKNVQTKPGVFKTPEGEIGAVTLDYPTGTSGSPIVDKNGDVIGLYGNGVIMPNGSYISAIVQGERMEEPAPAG
The depositor's hits bear a star; i = inactive; · = not tested or not shown.

| Molecule | Hsc70 | MT1-MMP promoter | WNV protease inh |
| --- | --- | --- | --- |
| CCc1ccc2[nH]c(=O)c(C(c3nnnn3Cc3ccccc3)N3CCOCC3)cc2c1 (stereo not given) | 3.3% | i | -0.23 |
| CCn1ncc2c(OCc3ccc(C#N)cc3)cc(C)nc21 | 3.9% | i | 1.7 |
| O=C(O)C1CCCCC1C(=O)NC1CCCCC1 (stereo not given) | 7.9% | i | -0.93 |
| Cn1c(NC(=O)c2ccc(F)c(F)c2)cc(=O)n(C)c1=O | 2.0% | i | -0.32 |
| CCOC(=O)C1CCN(S(=O)(=O)c2c(C)[nH]c(=O)[nH]c2=O)CC1 | -1.5% | i | -0.82 |
| CCOC(=O)Cn1nc(-c2ccccc2)ccc1=O | -3.6% | i | 0.08 |
| Cc1cccc2cc(CN(CC3CCCO3)S(=O)(=O)c3ccccc3)c3nnnn3c12 (stereo not given) | 1.9% | i | -0.09 |
| COc1cccc(C2C(C(=O)c3sc(C)nc3C)=C(O)C(=O)N2CCN(C)C)c1OC (stereo not given) | 3.9% | i | -0.51 |
| O=C(NCCCN1CCc2ccccc2C1)C1CCN(S(=O)(=O)N2CCCC2)CC1 | 4.0% | i | 1.1 |
| CCn1c(=O)cc(SCC(=O)N(C)Cc2ccccc2)c2ccccc21 | 4.0% | i | · |
| COC(=O)c1ccc(C(c2c(N)n(CC(C)C)c(=O)[nH]c2=O)N2CCN(c3ccccc3)CC2)cc1 (stereo not given) | -4.7% | i | -0.06 |
| COc1ccccc1CNC(=O)c1cc2c(s1)CS(=O)(=O)C2 | -8.4% | i | 1.6 |
| COc1ccc(CCNC2CC(=O)N(CCc3ccccc3)C2=O)cc1 (stereo not given) | 1.7% | i | · |
| Cc1nc(C)c2c(c1C(F)(F)F)-c1ccccc1C2(F)F | 1.6% | i | -0.03 |
| Cc1nc2ccc(S(=O)(=O)NCC(=O)O)cc2s1 | -3.0% | i | -0.81 |
| O=C(NCCc1ccncc1)c1ccccc1F | -4.7% | i | -1.8 |
| Cc1ccc(C(=O)CSc2nnc(COc3cccc4cccnc34)o2)cc1 | 7.1% | i | -1 |
| CC1CN=C(N(C(=O)Nc2ccccc2)C(C)C)S1 (stereo not given) | -4.7% | i | · |
| O=C(CSCC(=O)NC1CC1)Nc1ccccc1 | 5.1% | i | 0.16 |
| COC(=O)[C@@H](NC(=O)NC1CCN(Cc2ccccc2)CC1)C(C)C | -0.1% | i | 0.04 |
| C=CCn1c(SCc2nnc(-c3ccccc3)o2)nnc1C(O)c1ccccc1 (stereo not given) | -2.0% | i | 1.2 |
| CCOC(=O)N1CCC(NCCNC(=O)c2ccccc2Cl)CC1 | -5.6% | i | 1.8 |
| CCN(CC)C(=O)C1CCN(c2ncnc3c2cnn3-c2ccc(C)cc2C)CC1 | -1.2% | i | 1.6 |
| CCOC(=O)Nc1cccc(C(=O)O)c1 | 1.3% | i | · |
| O=[N+]([O-])c1cccc(N=NN(CCO)c2cccc([N+](=O)[O-])c2)c1 | -1.3% | i | · |
| O=C1CCCC2=C1C(c1cccs1)n1ncnc1N2 (stereo not given) | 3.0% | i | 0.65 |
| Cc1ccc(C)c(CN2CCCNC2=O)c1 | 0.1% | i | 1.2 |
| COCCCNC(=O)CN(c1cc(Cl)cc(Cl)c1)S(C)(=O)=O | -0.8% | i | · |
| O=C(CCN1C(=O)c2ccccc2S1(=O)=O)Nc1nc2c(s1)CCCC2 | -1.1% | i | -0.16 |
| COc1ccc(NC(=O)CC2C(=O)N(c3cccc(OC)c3)C(=O)N2C2CCCCC2)cc1 (stereo not given) | -6.0% | i | -0.22 |
| O=C1CCCC(O)=C1C=Nc1ccc2c(c1)oc1ccccc12 | -3.8% | i | -1.1 |
| O=C(Oc1cc(-c2ccccc2)no1)c1ccc(Cl)cc1 | 6.4% | i | · |
| CC(=O)c1c(N2CCN(Cc3ccc4c(c3)OCO4)CC2)nc(=S)n(-c2ccccc2)c1C | 4.9% | i | 0.54 |
| NCCCNC(=O)c1cc2ccccc2[nH]1 | -1.7% | i | 1.6 |
| O=c1c(-c2ccc(Br)cc2)coc2c(CN3CCOCC3)c(O)ccc12 | 2.4% | i | -0.22 |
| CCN1CCCC1CNC(=O)c1ccc(CS(=O)(=O)c2ccccc2C)o1 (stereo not given) | 5.0% | i | 0.73 |
| Cc1cccc(-n2c(SCC(=O)Nc3nnc(C)s3)nnc2-c2ccoc2C)c1 | -5.2% | i | -0.09 |
| CCOC(=O)c1c(NC(=O)CSc2nnc(-c3ccccc3)n2CC)sc(C(C)=O)c1C | -8.2% | i | -1.6 |
| COCCOC(=O)c1c(C)oc2ccc(OC(=O)c3ccc4c(c3)OCO4)cc12 | -0.3% | i | -0.01 |
| Clc1ccc(Cn2cc(Br)cn2)cc1Cl | 6.6% | i | 0.16 |
| CCCSc1nc(-n2ncc(C#N)c2N)c2c3c(sc2n1)CCC(C)C3 (stereo not given) | -0.3% | i | · |
| CN1CCN(C(=O)CSc2nc(-c3cccs3)cc(-c3cccs3)c2C#N)CC1 | -15% | i | -1.8 |
| COc1ccc(CN(CC(=O)NCC2CCCO2)C(=O)CCC(=O)Nc2cc(C)ccn2)cc1 (stereo not given) | -3.1% | i | -0.42 |
| CCCC(=O)Nc1ccccc1NC(=O)CN(C)S(=O)(=O)c1ccccc1 | 9.4% | i | -0.22 |
| COc1ccc(Cl)cc1N=Cc1c(O)cc(C)oc1=O | 0.1% | i | -0.75 |
| Cc1nn2c(N3CCOCC3)c3c(nc2c1-c1ccccc1)CCCC3 | -0.3% | i | -0.88 |
| COc1ccc(OC)c(-n2c(CN3CCC(C(N)=O)CC3)nc3ccccc3c2=O)c1 | 11% | i | 0.03 |
| FC(F)C(F)(F)C(F)(F)C(F)(F)c1cc(-c2ccccc2)n[nH]1 | -1.4% | i | -0.96 |

Some of these compounds in order of molar mass, lowest first:
| Molecule | Hsc70 | MT1-MMP promoter | WNV protease inh |
| --- | --- | --- | --- |
| NCCCNC(=O)c1cc2ccccc2[nH]1 | -1.7% | i | 1.6 |
| Cc1ccc(C)c(CN2CCCNC2=O)c1 | 0.1% | i | 1.2 |
| O=C1CCCC2=C1C(c1cccs1)n1ncnc1N2 (stereo not given) | 3.0% | i | 0.65 |
| COc1ccc(Cl)cc1N=Cc1c(O)cc(C)oc1=O | 0.1% | i | -0.75 |
| O=C1CCCC(O)=C1C=Nc1ccc2c(c1)oc1ccccc12 | -3.8% | i | -1.1 |
| Clc1ccc(Cn2cc(Br)cn2)cc1Cl | 6.6% | i | 0.16 |
| O=[N+]([O-])c1cccc(N=NN(CCO)c2cccc([N+](=O)[O-])c2)c1 | -1.3% | i | · |
| FC(F)C(F)(F)C(F)(F)C(F)(F)c1cc(-c2ccccc2)n[nH]1 | -1.4% | i | -0.96 |
| Cc1nn2c(N3CCOCC3)c3c(nc2c1-c1ccccc1)CCCC3 | -0.3% | i | -0.88 |
| COCCCNC(=O)CN(c1cc(Cl)cc(Cl)c1)S(C)(=O)=O | -0.8% | i | · |
| CCCSc1nc(-n2ncc(C#N)c2N)c2c3c(sc2n1)CCC(C)C3 (stereo not given) | -0.3% | i | · |
| CCCC(=O)Nc1ccccc1NC(=O)CN(C)S(=O)(=O)c1ccccc1 | 9.4% | i | -0.22 |
| CCN1CCCC1CNC(=O)c1ccc(CS(=O)(=O)c2ccccc2C)o1 (stereo not given) | 5.0% | i | 0.73 |
| O=c1c(-c2ccc(Br)cc2)coc2c(CN3CCOCC3)c(O)ccc12 | 2.4% | i | -0.22 |
| COc1ccc(OC)c(-n2c(CN3CCC(C(N)=O)CC3)nc3ccccc3c2=O)c1 | 11% | i | 0.03 |
| Cc1cccc(-n2c(SCC(=O)Nc3nnc(C)s3)nnc2-c2ccoc2C)c1 | -5.2% | i | -0.09 |
| CN1CCN(C(=O)CSc2nc(-c3cccs3)cc(-c3cccs3)c2C#N)CC1 | -15% | i | -1.8 |
| COc1ccc(NC(=O)CC2C(=O)N(c3cccc(OC)c3)C(=O)N2C2CCCCC2)cc1 (stereo not given) | -6.0% | i | -0.22 |
| CC(=O)c1c(N2CCN(Cc3ccc4c(c3)OCO4)CC2)nc(=S)n(-c2ccccc2)c1C | 4.9% | i | 0.54 |
| COc1ccc(CN(CC(=O)NCC2CCCO2)C(=O)CCC(=O)Nc2cc(C)ccn2)cc1 (stereo not given) | -3.1% | i | -0.42 |
| CCOC(=O)c1c(NC(=O)CSc2nnc(-c3ccccc3)n2CC)sc(C(C)=O)c1C | -8.2% | i | -1.6 |

Next section:
| Molecule | Hsc70 | MT1-MMP promoter | WNV protease inh |
| --- | --- | --- | --- |
| c1cncc(-c2nnc(SCc3cccc4ccccc34)o2)c1 | 4.1% | i | 0.56 |
| N#CCSc1nnc(Cc2cccc3ccccc23)n1C1CCCCC1 | -3.1% | i | 1.1 |
| CCC(Sc1nc(=O)cc(N)n1-c1ccccc1)C(=O)Nc1ccc(Cl)cn1 (stereo not given) | 2.6% | i | -0.43 |
| Cc1cc(C)c2[nH]c(=O)c(CN(CC3CCCO3)C(=O)C3CCCO3)cc2c1 (stereo not given) | 1.8% | i | 1.1 |
| CN(C(=O)c1cnc(N2CCN(c3ncccn3)CC2)c2ccccc12)c1ccc(Cl)cc1 | -3.8% | i | -0.95 |
| Cc1cc(C)c(NC2=NS(=O)(=O)c3ccccc32)c(C)c1 | -0.4% | i | · |
